Source: PubChem (National Center for Advancing Translational Sciences (NCATS))
Vaccinia mCherry – vaccinia inhibition (mCherry reporter). Vaccinia virus mCherry reporter infection, fluorescence; about a quarter of the inactives have no number. AID 720579. actives 0.63% (n = 310,000). Potency, µM (series often up to 36.5 µM), for inactives: at the highest dose activity change, negative = inhibition, usual class: inhibitors; active = well fitted inhibition curve with a large enough effect; inconclusive = small, poorly fitted or top-dose-only effect; inactive = no such curve, though single readings can be large or run the other way; tested in A549 cells; note: nearly all actives have a fitted effect of over 35% in size; inactives centre near -10
VACV Venus inh – vaccinia inhibition (Venus reporter); Potency, µM (titrated, usually from 36.5 µM), inactives show at the highest dose activity change, negative = inhibition, actives largely listed as inhibitors; actives 0.46% (n = 330,000); AID 720580; Vaccinia virus Venus reporter expression, fluorescence; active means well fitted inhibition curve with a large enough effect; inconclusive means small, poorly fitted or top-dose-only effect; inactive means no such curve, though single readings can be large or run the other way; tested in A549 cells; note: nearly all actives have a fitted effect of over 30% in size; inactives centre near -10
* marks the source's active call; other numbers are inactive results; i = inactive; ? = inconclusive; · = not tested or not shown; & = joins results of further samples; [ ] = remark or other dose. % is set by controls: 0 for no effect and ±100 for the full control effect; potency is the fitted concentration of half-maximal effect.

Structure,VACV Venus inh,Vaccinia mCherry
CC(=O)n1cc(/C=N/NC(=O)c2sc(C)nc2C)c2ccccc21,?,-29%
O=C(c1ccc(COc2ccc(Cl)cc2Cl)o1)N1CCCC1,-21%,-1%
CCc1ccccc1CC1CN(Cc2ccccc2)Cc2ccccc2N1c1ccc(OC)cc1 (centres undefined),-2%,i
CC(=O)C[C@H]1c2cc(F)cc(F)c2S(=O)(=O)N1C1CCN(Cc2ccccc2)CC1,-11%,-9%
COc1cccc(NC(=O)c2nc3ncccn3n2)c1,-20%,·
CCOC(=O)C1=C(COC(=O)c2cc(S(=O)(=O)N(C)C)ccc2C)NC(=O)NC1C (centres undefined),-28%,-13%
COc1cccc(NC(=S)N2CCC(NC(=O)c3ccco3)CC2)c1,-5%,-16%
CC(C)(C)NCc1cc(Cl)ccc1OCc1ccccc1F,-7%,-25%
COc1ccc(NC(=O)C(=O)Nc2cccc3cccnc23)cc1OC,-14%,i
O=C(CN1C(=O)C2CCCCC2C1=O)Nc1ccc(S(=O)(=O)Nc2ncccn2)cc1 (centres undefined),-15%,i
CCOc1ccc(S(=O)(=O)N2CCC(C(=O)N3CCCCCC3)CC2)cc1C,?,?
COc1ccc([C@H]2CC(=O)C=C(c3ccc4ncccc4c3)C2)cc1,?,-15%
O=c1ccc2cc(S(=O)(=O)N3CCOCC3)ccc2o1,-5%,·
CCOC(=O)c1noc2ncn(CC(=O)Nc3cc(Cl)ccc3OC)c(=O)c12,-1%,-2%
CC(=O)Nc1ccc(NC(=O)COc2ccc(Br)cc2C)cc1,-11%,-17%
COc1ccc(N(CC(=O)N2CCCCCC2)S(=O)(=O)c2ccccc2)cc1,-5%,-7%
CSc1ccc(CN2CCN(C(=O)c3ccncc3)CC2)cc1,-14%,i
COc1ccc(NS(=O)(=O)c2csc(C(=O)Nc3ccccc3)c2)cc1,-9%,-14%
O=C1CN(C(=O)/C=C/c2ccc(Cl)cc2Cl)CCN1,-3%,-9%
CCC(=O)Nc1cc2c(cc1C(=O)c1ccccc1)OCCO2,-21%,·
COc1ccc(NC(=O)c2oc3ccccc3c2NC(=O)c2cc(=O)c3ccccc3o2)cc1,-27%,-26%
COc1ccc(C2CCCN2C(=S)Nc2cccc(Cl)c2C)cc1OC (centres undefined),-14%,-10%
COc1cc(OC)cc(C2=Cc3ccccc3C(CC(=O)c3ccco3)N2c2ccc(-c3ccc(C(N)=O)cc3)cc2)c1 (centres undefined),-10%,-16%
CC(C)Cc1ccc(C(C)CC2=CCC(CN(C)C)C2=O)cc1 (centres undefined),-23%,?
Cc1ccc(NC(=O)CSc2nnc(C(F)(F)F)n2C)cc1[N+](=O)[O-],52%[activator],45%[activator]

Structure,VACV Venus inh,Vaccinia mCherry
Cc1ccc(S(=O)(=O)N2C[C@H]3N(C(=O)OC(C)C)N(C(=O)OC(C)C)C[C@H](OC(=O)NCc4ccccc4)[C@@]3(O)C2)cc1,?,-9%
CCc1ccc(-c2nc(SCC(=O)NC3CCCC3)n[nH]2)cc1,-14%,i
Cc1nnc(SCC(=O)N2CCCC2)n1-c1ccc(F)cc1,-12%[7.34 µM],-3%[7.34 µM]
CN1CCCN(C(=O)[C@@H]2C[C@@H](Sc3nc4ccccc4[nH]3)CN2Cc2ccc(OC(F)(F)F)cc2)CC1,-9%,-24%
Cc1ccccc1Nc1c(-c2cccnc2)nc2ccccn12,-19%,?
Cc1cccc(N/C=C/C(=O)c2cccs2)c1C,-9%,-22%
Cc1cccc(-c2cc(C(=O)Nc3sc(C)c(C)c3C(N)=O)c3ccccc3n2)c1,-9%,i
O=C(O)c1ccc(N=Nc2c(O)[nH]c3ccccc23)cc1,23%,i
O=c1[nH]c(/C=C/c2cccc([N+](=O)[O-])c2)c([N+](=O)[O-])c(=O)[nH]1,-9%,-1%
CCn1c(C)c(P(=O)(N2CCOCC2)N2CCOCC2)c2ccccc21,3%,4%
COc1ccc(/C=N/NC(=O)c2ccc(NC(=O)c3ccccc3Br)cc2)cc1,-12%,i
CCNC(COC(=O)c1ccc([N+](=O)[O-])cc1)C1CCCCC1 (centres undefined),-14%,i
CC(C)(C)NC(=O)c1oc2ccccc2c1NC(=O)c1ccc(F)cc1,-9%,-11%
O=C1CCC(C(=O)N2CCOCC2)CN1Cc1cccc(C(F)(F)F)c1 (centres undefined),-7%,0%
O=C(NCCc1nc2ccccc2[nH]1)/C(=C/c1ccc2c(c1)OCO2)NC(=O)c1ccccc1Cl,-10%,i
COc1ccccc1N(CC(=O)Nc1ccccc1C(F)(F)F)S(=O)(=O)c1ccc(C)cc1,-15%,-18%
CCCOc1ccc(C(=O)C(c2ccccc2)N2CCOCC2)cc1 (centres undefined),-25%,·
FC(F)(F)c1cccc(CN2CCSCC2)c1,-11%,i
COc1ccc(S(=O)(=O)N2CCC(C(=O)N[C@H](C(=O)NC3CCCC3)C(C)C)CC2)cc1,-11%,-3%
CC(CCc1ccccc1)NC(=O)C(=O)Nc1ccccc1 (centres undefined),-6%,-11%
Cc1ccc(S(=O)(=O)Nc2ccc3cn[nH]c3c2)cc1C,-6%,-12%
Cc1c(NS(=O)(=O)c2ccc(NC3CCCC3)c([N+](=O)[O-])c2)c(=O)n(-c2ccccc2)n1C,-7%,-9%
CCOc1ccc(NC(=O)Cn2cc(C(=O)c3ccc(C)cc3)c(=O)c3cc4c(cc32)OCCO4)cc1,1%,-1%
CCc1ccc(OCC(=O)N/N=C/c2cc([N+](=O)[O-])ccc2N2CCOCC2)cc1,-13%,-14%
O=C(CN1CCN(S(=O)(=O)/C=C/c2ccccc2)CC1)Nc1ccc(N2CCOCC2)cc1,-13%,-30%

Some of the entries so far, with values under each structure:
Results follow in this order: VACV Venus inh | Vaccinia mCherry
CCOc1ccc(NC(=O)Cn2cc(C(=O)c3ccc(C)cc3)c(=O)c3cc4c(cc32)OCCO4)cc1
    1% | -1%
O=c1[nH]c(/C=C/c2cccc([N+](=O)[O-])c2)c([N+](=O)[O-])c(=O)[nH]1
    -9% | -1%
CC(C)(C)NC(=O)c1oc2ccccc2c1NC(=O)c1ccc(F)cc1
    -9% | -11%
CCCOc1ccc(C(=O)C(c2ccccc2)N2CCOCC2)cc1 (centres undefined)
    -25% | ·
CCn1c(C)c(P(=O)(N2CCOCC2)N2CCOCC2)c2ccccc21
    3% | 4%

Carrying on:
Structure,VACV Venus inh,Vaccinia mCherry
CC(c1ccc(F)cc1)n1c(-c2cccs2)n[nH]c1=S (centres undefined),-2%,i
c1ccc(N2CCCCC2)c(Nc2nc3ccccc3n3cnnc23)c1,0%,?
COc1ccc(C(CCO)NC(=O)c2cccs2)cc1OC (centres undefined),-2%,4%
CC(Oc1ccc(Br)cc1)c1nc2c3ccccc3nc(=S)n2[nH]1 (centres undefined),-23%,-5%
Cc1cc(-n2c(C)nc3ccccc3c2=O)ccc1NC(=O)c1cccc([N+](=O)[O-])c1C,-8%,18%
CCCOc1c(Cl)cc(C(=O)Nc2ccc3c(c2)OCO3)cc1OCC,?,?
CSc1ncc(CN2CCCC(C(=O)c3cccc(Cl)c3)C2)cn1 (centres undefined),-13%,-12%
COC(=O)c1cc2n(n1)CCN(Cc1ccc(F)cc1)C2=O,-14%,·
CCc1ccc(OCc2nc(-c3ccc(OC)cc3)no2)c(Br)c1,-18%,-14%
CN(C)S(=O)(=O)c1cccc(NC(=S)NC(=O)c2ccco2)c1,-5%,-14%
C=CCN(C(=O)c1csnn1)C(C(=O)NCc1ccccc1)c1c(F)cccc1Cl (centres undefined),14%,i
Oc1[nH]c2ccccc2c1N=Nc1ccccc1F,23%,-15%
CN(C)c1ccc(CNc2nc(-c3ccco3)nn2S(C)(=O)=O)cc1,1%[7.34 µM],-7%[7.34 µM]
Cc1ccc(-c2nc3ccccc3c(=O)n2-n2cccc2)cc1,-10%,i
Cc1ccc2c(CN(C)Cc3cccc(Cl)c3)cc(=O)oc2c1C,-17%,-14%
CCC1CCCCN1C(=O)CCS(=O)(=O)c1ccccc1 (centres undefined),8%,-5%
COc1ccc(Nc2c3c(nc4nncn24)CCC3)cc1OC,-22%,i
CC(C)NC[C@@H](O)COc1ccc(CC(N)=O)cc1,-11%,-16%
COc1ccccc1NC(=O)COC(=O)CCn1c(C)csc1=O,-7%,-11%
CN(CC(=O)Nc1cccc(F)c1)C(=O)c1ccc(N2C(=O)c3ccccc3C2=O)cc1,0%,-11%
CCc1cc2c(=O)n(Cc3ccco3)c(SCC(=O)NCC3CCCO3)nc2s1 (centres undefined),-18%,-16%
CCOc1ccc(NC(=O)C(NS(=O)(=O)c2cccc3nsnc23)c2ccccc2)cc1 (centres undefined),-5%,-15%
Cc1ccc(C(=O)NCc2cccc(C(F)(F)F)c2)cc1S(=O)(=O)N1CCCCC1,-5%,-28%
CCOC(=O)/C(C#N)=C/C=C1\C=Cc2ccccc2N1CC,57%[activator],-6%
CCOC(=O)c1ccc(S(=O)(=O)N2CCN(CC(=O)NC(=O)NC3CCCCC3)CC2)cc1,-1%,-10%

Structure,VACV Venus inh,Vaccinia mCherry
COc1ccccc1C(=O)C1CCCN(C(=O)c2cn3cc(Cl)ccc3n2)C1 (centres undefined),-1%,-8%
CCN(CC)c1ccc(/C=N/NC(=O)CC(C)C)cc1,-15%,-14%
CSc1nc(N2CCOCC2)nc2ccc(C)cc12,?,-11%
Cc1onc(-c2ccccc2)c1CNC(=O)C1COc2ccccc2O1 (centres undefined),1%,i
C[C@@H]1CN([C@@H](C)CO)S(=O)(=O)c2ccc(Br)cc2O[C@H]1CN(C)C(=O)c1ccncc1,-7%,i
COCCNC(=O)CN1CCC(NC(=O)C(C)(C)C)CC1,0%,i
CCSc1nc2ccccc2n1C(=O)Oc1ccccc1,5%,-6%
CC1(C(=O)NS(=O)(=O)Cc2cccc(Cl)c2)CCN1C(=O)Cc1ccc(-c2ccccc2)cc1 (centres undefined),-3%,25%
COC(=O)C1CCCCN1Cc1ccc2c(c1)CN(C1CCSCC1)CCO2 (centres undefined),-6%,-6%
CCCCN(C=O)c1c(CC)nc2c(OCC(=O)C(C)(C)C)cccn12,1%,2%
COc1ccc(-n2c(COc3ccc(C)cc3)nnc2SCC(N)=O)cc1,-16%,·
c1ccc(COc2ccc(OCCCCN3CCCC3)cc2)cc1,-16%,i
O=C(NCc1ccco1)c1ccc2snnc2c1,8%,1%
COC(=O)c1[nH]c2ccc(C)cc2c1NC(=O)Nc1ccc(OC)cc1,-15%,-2%
COc1ccc(C(=O)/C(=C/N(C)C)S(=O)(=O)c2ccccc2)cc1,2%,-6%
Cc1ccc(SCC(=O)OCC(=O)N2CCN(C(=O)c3ccco3)CC2)c(C)c1,-6%,-10%
CCCn1c2c(c(O)c(C(=O)NC)c1=O)CCCC2,-4%,·
CCNC(=S)N/N=C(\C)c1cc2ccccc2o1,-27%,?
O=C(OCc1ccccc1)N1CCC2CC1c1cc(-c3cc4ccccc4o3)ccc12 (centres undefined),-25%,?
Cc1nnc(NC(=O)CCSCCC(=O)Nc2nnc(C)s2)s1,5%,i
CC(C)(C)c1ccc(C2(C)NC(=O)N(CC(=O)NCc3cccs3)C2=O)cc1 (centres undefined),-27%,i
Cc1cccc(C)c1OCC(=O)NC(Cc1c[nH]c2ccccc12)C(=O)O (centres undefined),-8%&-15%,-18%
Cc1nn(C(=O)c2nn(C)cc2[N+](=O)[O-])c(C)c1Cl,-6%,i
COc1ccc(OCCNc2cc(N3CCOCC3)ccc2[N+](=O)[O-])cc1,?,11µM*
O=C(Nc1cccc(NC(=O)c2ccccc2Cl)c1)c1cccc(Br)c1,-16%[7.34 µM],-12%[7.34 µM]

Structure,VACV Venus inh,Vaccinia mCherry
CCN(CC)c1ccc(/C=N/NC(=O)c2ccco2)cc1,-25%,-28%
CC(C)C(=O)N1CCN(c2ccc(NC(=O)c3ccco3)cc2Cl)CC1,-7%,-3%
Cc1cc(NC(=O)COc2ccccc2C(N)=O)no1,-14%,i
Cc1ccc(Cl)cc1N1CCN(C(=O)c2ccc(NC3=NC4CS(=O)(=O)CC4S3)cc2)CC1 (centres undefined),0%[7.34 µM],i[7.34 µM]
O=C1CCCc2c1nc(-c1ccccc1F)n2O,-3%,-3%
O=C(CCNS(=O)(=O)c1ccccc1)OCC(=O)c1ccc[nH]1,-8%,-7%
Cc1nn(Cc2ccc(C(=O)N3N=C(C(F)F)CC3(O)C(F)F)cc2)c(C)c1[N+](=O)[O-] (centres undefined),-17%,-2%
CCCn1c(N)c(C(=O)CSc2ncc(C(F)(F)F)cc2Cl)c(=O)[nH]c1=O,-7%,-6%
NNC(=O)c1ccc(COc2ccc3c(c2)CCC3)o1,-4%,-1%
C/C(=N/NS(=O)(=O)c1ccc(F)cc1)c1ccc(NC(=O)c2ccc(C)o2)cc1,-5%,·
CCN1CCN(C(C)C(=O)Nc2c(C)n(C)n(-c3ccccc3)c2=O)CC1 (centres undefined),-5%,-18%
O=C(N[C@@H](Cc1ccccc1)C(=O)OCc1ccccc1)c1nc[nH]c1C(=O)N1CCNCC1,-1%,-11%
